Bioassay records from PubChem.
TRPML1 ag: human mucolipin-1 channel agonism | Q9GZU1 | TRPML1-expressing cells, Ca2+ dye fluorescence, FDSS; host cell line not named in the record; reference of the full effect not given here | activation, % (test concentration not listed) | 0.12% of 410,000 active | AID 624414; in the data active = activation above about 50%; inconclusive = about 30% to 50%; inactive = below about 30%; further: 0% is about no effect; the text of the record puts the active cut at 80%
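Calcium fluorescence on an FDSS kinetic reader gave the read-out. Tet-induced TRPML1-DL cells were plated overnight, dye-loaded (Ca8 with quencher, 45-90 min, room temperature, dark), then read 110 s after compound addition, and again 110 s after 4uM final 54-4 (EC80).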
Six1-Eya2 inh: blocks human Six1 binding to Eya2 | activity change, % (concentration not given with the values) | Q15475+O00167 | 0.56% of 360,000 active | AID 651725 | AlphaScreen GST-Six1/His-Eya2 binding, biochemical; stronger effect = lower value; control for the full effect not named in the record; in the data active = activity change below about -65%; inconclusive = about -30% to -65%; inactive = above about -30%; further: on the % scale 0 is the no-effect control and ±100 the full control effect
Target sequence (O00167 whole entry, looked up): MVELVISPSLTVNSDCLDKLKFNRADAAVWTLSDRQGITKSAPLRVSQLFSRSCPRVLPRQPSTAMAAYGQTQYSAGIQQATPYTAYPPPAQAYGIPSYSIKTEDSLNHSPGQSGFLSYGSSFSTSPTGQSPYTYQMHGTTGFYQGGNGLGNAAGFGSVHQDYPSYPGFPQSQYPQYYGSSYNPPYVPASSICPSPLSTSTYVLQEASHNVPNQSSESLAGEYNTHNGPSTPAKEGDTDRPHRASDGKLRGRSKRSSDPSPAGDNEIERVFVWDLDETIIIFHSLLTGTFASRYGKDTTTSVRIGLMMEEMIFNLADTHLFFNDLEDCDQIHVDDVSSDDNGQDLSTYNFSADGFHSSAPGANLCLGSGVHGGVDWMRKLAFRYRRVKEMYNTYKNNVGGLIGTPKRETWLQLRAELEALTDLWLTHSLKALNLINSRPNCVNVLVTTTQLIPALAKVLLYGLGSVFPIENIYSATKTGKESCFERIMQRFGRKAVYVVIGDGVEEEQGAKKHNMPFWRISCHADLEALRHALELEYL
Target sequence (Q15475 whole entry, looked up): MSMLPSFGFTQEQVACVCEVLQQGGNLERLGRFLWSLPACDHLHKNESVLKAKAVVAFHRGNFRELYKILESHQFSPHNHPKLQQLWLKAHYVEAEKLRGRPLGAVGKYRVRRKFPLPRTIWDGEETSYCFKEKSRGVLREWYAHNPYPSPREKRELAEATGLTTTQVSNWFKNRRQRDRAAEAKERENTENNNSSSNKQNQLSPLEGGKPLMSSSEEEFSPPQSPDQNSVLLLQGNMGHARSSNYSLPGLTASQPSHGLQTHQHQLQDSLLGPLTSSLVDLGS
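GST-Six1 + His-Eya2 (5X stock: 250/500 nM); Tris pH 8.0, 300 mM NaCl, 0.05% BSA, 0.02% Tween 20; GSH donor/Ni acceptor beads; 1 h 37 °C dark; AlphaScreen readout.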
CtBP-E1A inh: blocks the CtBP interaction with E1A; AlphaScreen GST-E1A/His-CtBP binding, 1536-well; stronger effect = lower value; control for the full effect not named in the record; AID 651724; 0.49% of 340,000 active; activity change, % (concentration not given with the values); in the data active means activity change below about -65%; inconclusive means about -30% to -65%; inactive means above about -30%; further: on the % scale 0 is the no-effect control and ±100 the full control effect
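AlphaScreen with 125 nM GST-E1A and 125 nM His-CtBP (5X stocks) in Tris pH 8.0, 300 mM NaCl, BSA, Tween 20, TCEP. Compounds preincubated 2 h at 37 deg C, then glutathione donor/nickel acceptor beads added for 1 h at 37 deg C in dark.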
D2 PAM: positive allosteric modulators of human D2 dopamine receptor; P14416; DiscoveRx D2 beta-arrestin cells, luminescence, 90 min; 100% = 57 uM dopamine signal; potentiation, % (no concentration beside the values); 0.23% of 360,000 active; AID 624464; active = potentiation of 50% or more; inconclusive = 30% to 50%; inactive = 30% or less;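 further: compound concentration not given in the record; tested on top of an EC20 dose of dopamine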
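PathHunter D2 cells, attached overnight at 37 deg C, received compound in DMSO plus dopamine at EC20 (50 nM final) for 90 min at 37 deg C. Beta-arrestin recruitment was read as luminescence after 1 h with detection reagent at ambient temperature.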
TRPML1 blocker: inhibitors of human TRPML1 channel. activity change, negative = inhibition, % (concentration not given with the values). 0.02% of 390,000 active. Q9GZU1. TRPML1-inducible cells, Ca2+ dye fluorescence, FDSS; stronger effect = lower value; inhibition of EC80 agonist-evoked calcium signal; in the data active means activity change below about -50%; inconclusive means about -30% to -50%; inactive means above about -30%;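 further: stimulus is agonist 54-4 at its EC80 concentration; on the % scale 0 is the no-effect control and ±100 the full control effect; compound concentration not given in the record; the text of the record puts the active cut at -80%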
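Tet-induced TRPML1-DL cells loaded with Ca8 no-wash calcium dye were read kinetically on FDSS. Compound addition was followed by EC80 agonist 54-4 (4 uM final); inhibition was read over 110 s.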
TRPV1 potentiator: enhances activation of the human vanilloid receptor TRPV1. TRPV1-expressing cells, Fluo-8 calcium influx, capsaicin EC20 potentiation; host cell line not named in the record; control for the full effect not named in the record. potentiation, % at 8.33 µM. 0.02% of 320,000 active; active means potentiation above 80%; inconclusive means 30% to 80%; inactive means below 30%; further: 0% is about no effect
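Fluo-8 calcium influx in TRPV1-expressing cells, kinetic read (ex 480/em 520 nm). Compound added and read 3 min for agonist activity, followed by capsaicin at EC20 final and 2 min further read for enhancement.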
* = called active by the depositor; ? = inconclusive; / = no result given; & = joins results of further samples.

SMILES	TRPML1 ag	Six1-Eya2 inh	CtBP-E1A inh	D2 PAM	TRPML1 blocker	TRPV1 potentiator
CCc1ccc(CN(C)C(=O)CCc2nnc(COc3ccccc3)o2)cc1	1.5	-1	/	-7	-10	-12
COc1ccc(-c2c[n+]3c(n2-c2ccccc2)SCC3)cc1OC	0.4	0	-1	-5	4	-18
O=C(CCCCl)NC1=NN(c2ccccc2)C(=O)C1	0.3	11	12	-13	0	-3
CCC(NS(=O)(=O)c1c(C)[nH]c(=O)[nH]c1=O)C12CC3CC(CC(C3)C1)C2 (centres undefined)	-0.3	10	-1	5	-4	-6
CC(C)Cn1c(-c2cccs2)nc2nc3ccccc3nc21	2.6	33	16	3	-13	-9
Cc1[nH]c(-c2ccc(F)cc2)cc1C(=O)N1CCN(c2ccccc2F)CC1	-1.3	-9	-4	-12	13	-6
O=C(CSc1nnc(CNc2ccc(F)cc2)o1)OC1CCCCC1	1.0	0	-2	-11	-6	6
O=C(/C=C/c1cccs1)N1CCN(c2ccc(F)cc2)CC1	1.5	2	0	-11	-2	-28
COC(=O)c1cc(NC(=O)COC(=O)CCc2c[nH]c3ccccc23)cc(C(=O)OC)c1	-0.5	-1	-3	-4	-8	?
O=C(NCc1ccccc1)C(c1ccc(F)cc1)N(C(=O)c1csnn1)c1ccccc1 (centres undefined)	0.6	12	-19	-3	3	-7

Shown with each value named: part of the list above
molecule: CCC(NS(=O)(=O)c1c(C)[nH]c(=O)[nH]c1=O)C12CC3CC(CC(C3)C1)C2 (centres undefined)
  TRPML1 ag: -0.3	Six1-Eya2 inh: 10	CtBP-E1A inh: -1	D2 PAM: 5	TRPML1 blocker: -4	TRPV1 potentiator: -6

molecule: CC(C)Cn1c(-c2cccs2)nc2nc3ccccc3nc21
  TRPML1 ag: 2.6	Six1-Eya2 inh: 33	CtBP-E1A inh: 16	D2 PAM: 3	TRPML1 blocker: -13	TRPV1 potentiator: -9

molecule: Cc1[nH]c(-c2ccc(F)cc2)cc1C(=O)N1CCN(c2ccccc2F)CC1
  TRPML1 ag: -1.3	Six1-Eya2 inh: -9	CtBP-E1A inh: -4	D2 PAM: -12	TRPML1 blocker: 13	TRPV1 potentiator: -6

molecule: O=C(CSc1nnc(CNc2ccc(F)cc2)o1)OC1CCCCC1
  TRPML1 ag: 1.0	Six1-Eya2 inh: 0	CtBP-E1A inh: -2	D2 PAM: -11	TRPML1 blocker: -6	TRPV1 potentiator: 6

Next section:
SMILES	TRPML1 ag	Six1-Eya2 inh	CtBP-E1A inh	D2 PAM	TRPML1 blocker	TRPV1 potentiator
O=C(COC(=O)c1c(F)cccc1Cl)NC1CCCC1	-0.2	3	3	-3	-9	0
CC(C)(C)C(=O)c1c(N)[nH]c(C(=O)c2ccccc2)c1-c1cc2ccccc2nc1Cl	-0.8	10	2	/	/	/
Cc1ccc(C)c(S(=O)(=O)N2CCN(C(=O)[C@@H]3CCCN3C(=O)c3cccs3)CC2)c1	-0.5	7	-2	5	-20	-4
CC1=C(C(=O)Nc2ccc(F)cc2)C(c2ccncc2)C2=C(CCCC2=O)N1 (centres undefined)	0.7	9	-9	-6	-6	7
CC(=O)c1cccc(NC(=O)N2CCCC2C(=O)NCc2ccc(C)cc2)c1 (centres undefined)	-0.6	5	-2	-9	11	3
O=C(NCC(c1ccco1)N1CCc2ccccc21)c1c(F)cccc1F (centres undefined)	0.7	-1	0	-1	11	-10
CCOc1ccc(NC(=O)[C@@H]2CCCN2C(=O)c2cccs2)cc1S(=O)(=O)N1CCCCC1	2.7	-4	-12	3	-13	-3
O=S(=O)(CCc1ccncc1)Cc1ccc2c3c(cccc13)CC2	0.7	4	/	0	7	-24
CCCOc1cccc(C2C(C(=O)c3cc4ccccc4o3)=C(O)C(=O)N2c2cc(C)on2)c1 (centres undefined)	2.1	3	/	-3	7	-13
C[N+](C)(CCCCCC[N+](C)(C)CCCN1C(=O)c2cccc3cccc(c23)C1=O)CCCN1C(=O)c2cccc3cccc(c23)C1=O	0.0	4	-17	-7	6	8
COc1ccc(OC)c(C(=O)NC(CC(N)=O)c2ccc(N3CCCCCC3)c([N+](=O)[O-])c2)c1 (centres undefined)	-0.7	-6	-2	-8	-2	12
O=S(=O)(c1ccc(Cl)cc1)n1ccc(-c2cccc(OCc3c(F)cccc3Cl)c2)n1	2.8	3	-7	-7	8	/
O=C(c1ccccc1)N(NC(=O)C(O)(c1ccccc1)c1ccccc1)c1cccc(F)c1	2.7	45	7	-5	-10	4
C=CCNC(=O)c1ccc(-n2cccc2)cc1	-0.6	-9	4	-1	-11	-12
Cc1ccccc1NC(=O)CSC(N)=O	0.7	15	9	-11	-6	4
COc1ccc(CNC(=O)C(C)N2C(=O)NC3(CCCCCCC3)C2=O)cc1 (centres undefined)	0.2	11	12	-18	-2	-2
CCOc1cc(-c2nc(-c3ccccc3OC)no2)cc(OCC)c1OCC	1.3	-4	3	-1	-2	-15
O=C(Nc1ccc(N2CCOCC2)nc1)c1c(F)cccc1F	0.0	13	3	-3	5	-4
COc1ccc(NC(=S)N2CCN(Cc3cccc(F)c3)CC2)c(OC)c1	-0.3	-10	-2	-37	10	-4
Cc1ccc(-c2n[nH]c3c2C(c2ccccc2)N(c2ccc(C(=O)O)cc2)C3=O)cc1 (centres undefined)	0.3	-2	-2	4	-3	-17
CCOc1cc(C(=O)Nc2cc3c(cc2N2CCOCC2)n(C)c(=O)n3C)cc(OCC)c1OCC	0.7&-0.4	-1	6	1	35&1	10
COc1cc(CC(=O)OCC(=O)NC2CCCCC2C)cc(OC)c1OC (centres undefined)	1.0	7	-13	0	-1	-4
CS(=O)c1ccccc1-c1nc(-c2ccc([N+](=O)[O-])cc2)no1 (centres undefined)	0.5	-24	-8	-2	-3	/
CCSc1sccc1C1C(C#N)=C(N)N(c2cccnc2)C2=C1C(=O)CC(C)(C)C2 (centres undefined)	1.6	2	5	-4	4	-5
CN1CCSc2ccc(C(=O)Nc3cccc(F)c3)cc21	0.7	0	-1	-4	?	20
CC1(C(=O)OCC(=O)Nc2ccc(S(=O)(=O)N3CCOCC3)cc2)CC1(Cl)Cl (centres undefined)	0.7	-7	-2	-13	-20	/
Cc1cc(C(=O)Nc2ccccc2C(F)(F)F)no1	0.2	1	13	2	-3	1
CCc1nc(Nc2ccc3c(c2)OCO3)c2oc3ccccc3c2n1	3.9	-25	-8	19	16	2
O=C(OCC(=O)c1c[nH]c2ccccc12)c1ccc([N+](=O)[O-])s1	2.6	-16	-21	19	6	-6
CCOC(=O)C1=C(COC(=O)c2sccc2C)NC(=O)NC1C (centres undefined)	-0.9	7	/	-2	-7	-1
CCCCc1nc2c(C)c(N)cnc2n1Cc1cccc([N+](=O)[O-])c1	-0.3	-2	2	4	28	15
O=C1CC(c2ccc(Cl)cc2)n2nc(N3C(=O)c4ccccc4C3=O)nc2N1 (centres undefined)	0.4	-8	-4	-10	4	-29
COc1ccc(CC(=O)N/N=C(\C)c2cccs2)cc1OC	0.2	-3	2	10	1	-2
Cc1cc(-c2nnc(CCC(=O)NCc3cccc(C(F)(F)F)c3)o2)no1	-0.1	10	-12	-4	-10	-14
NC(=O)C1CCN(C(=O)Cc2ccc(-c3ccccc3)cc2)CC1	0.8	9	0	-4	-14	-20
COc1ccccc1N(CC(O)COc1c(C)cc(C)cc1C)S(=O)(=O)c1ccccc1 (centres undefined)	2.5	-8	-3	1	45	6
O=C(CSc1cn[nH]n1)Nc1ccccc1F	0.4	14	-2	-15	21	-13
CC(Cn1nnc2ccccc21)C(=O)O (centres undefined)	0.2	3	1	-6	-6	0
CCCn1c(C(C)Nc2nc(-c3cc(Cl)c(N)c(Cl)c3)cs2)nc2cc(Cl)c(N3CCCCC3)cc21 (centres undefined)	-1.2	-7	1	-17	-3	17
CC(=O)Oc1ccc(/C=C2/CCc3ccccc3C2=O)cc1	4.8	4	3	6	-9	-2
Cn1cnc2ccc([N+](=O)[O-])cc2c1=O	0.5	0	/	-5	-7	9
O=C1C(=Cc2ccccc2[N+](=O)[O-])Cc2ccccc21	-0.1	3	-8	-15	-7	/
CCCSCCCNC(=O)Cn1cc2c(n1)CCC(C)C2 (centres undefined)	0.4	-1	7	2	-13	12
Cc1[nH]nc(-c2ccc(O)cc2O)c1Oc1ccccc1	-0.2	-16	-7	?	-5	-4
CC1(C)Cc2c(ccc3ccccc23)-c2nnc(-c3cccnc3)n21	0.4	0	5	-22	14	-5
COc1ccc(CN(C)C(=O)[C@H]2O[C@@H](n3cnc4c(N)ncnc43)[C@H](O)[C@@H]2O)cc1OC	-0.5	-3	-3	5	31	/
CC(C)(C)C(=O)Nc1ncccc1C(O)c1cccc(C(F)(F)F)c1 (centres undefined)	-0.2	5	0	-1	8	-17
O=C(COC(=O)C1CC(=O)N(c2ccccc2)C1)c1ccccc1 (centres undefined)	1.1	3	-10	-4	-7	-7
COC(=O)c1ccc(C(C(=O)NC2CCCCC2)N(C(=O)Cc2cccs2)C2CC2)cc1 (centres undefined)	-0.2	9	-3	-6	17	-11
CC1=NCCN1S(=O)(=O)c1cc([N+](=O)[O-])ccc1Cl	-0.4	3	14	14	15	-2
COc1ccc(C2CC(=O)c3cnc(NC(=O)c4ccco4)nc3C2)cc1 (centres undefined)	-0.4	0	6	-14	1	5
O=C(NNc1c(F)c(F)cc(F)c1F)C1CCN(S(=O)(=O)c2ccccc2F)CC1	0.8	-1	-1	-1	7	/
CC1CCN(S(=O)(=O)c2ccc3c(c2)oc(=O)n3C)CC1	0.4	8	5	-4	0	?

Compounds from the list above that have a CF3 group (3):
SMILES	TRPML1 ag	Six1-Eya2 inh	CtBP-E1A inh	D2 PAM	TRPML1 blocker	TRPV1 potentiator
Cc1cc(C(=O)Nc2ccccc2C(F)(F)F)no1	0.2	1	13	2	-3	1
Cc1cc(-c2nnc(CCC(=O)NCc3cccc(C(F)(F)F)c3)o2)no1	-0.1	10	-12	-4	-10	-14
CC(C)(C)C(=O)Nc1ncccc1C(O)c1cccc(C(F)(F)F)c1 (centres undefined)	-0.2	5	0	-1	8	-17

An excerpt from above in order of their number in D2 PAM, smallest number first:
canonical_smiles	Six1-Eya2 inh	CtBP-E1A inh	D2 PAM	TRPML1 blocker
CC1(C)Cc2c(ccc3ccccc23)-c2nnc(-c3cccnc3)n21	0	5	-22	14
COC(=O)c1ccc(C(C(=O)NC2CCCCC2)N(C(=O)Cc2cccs2)C2CC2)cc1 (centres undefined)	9	-3	-6	17
Cn1cnc2ccc([N+](=O)[O-])cc2c1=O	0	/	-5	-7
